Sa growth 42C: inhibitors of Staphylococcus aureus growth at 42 °C | AID 720641 | relative growth, % (no concentration beside the values) | actives 0.53% (n = 170,000) | S. aureus RN4220 growth, OD600, 20 h; stronger effect = lower value;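 active = growth at 42 °C up to 50% and 20 or more points under that at 30 °C, or under 10% at both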;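 note: 300 nL library stock went into each well; scaled to the means of positive and negative controls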
HCMV NEC inh: cytomegalovirus nuclear egress complex inhibition; HTRF UL50-UL53 interaction, normalized percent inhibition; inhibition, % (no concentration beside the values); actives 0.15% (n = 190,000); AID 1918969;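 active = both replicates at 50% or more, plus weaker picks with an unusually low signal ratio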;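 note: stock transfer was 100 nL into about 20 µL; 0% = negative control wells and 100% = wells with untagged competitor protein; inactives centre near -12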
GIV Gai3 FP: inhibitors of GIV GBA-motif binding to rat Galpha-i3; P08753; Galpha-i3/FITC-GIV peptide fluorescence polarization, 90 min; stronger effect = lower value; scaled: aluminum fluoride 0%, vehicle 100%; percent of control (FP), % (no concentration beside the values); actives 0.42% (n = 210,000); AID 1224905;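 active = replicate mean at 85% of control or lower, very high polarization wells dropped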;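 note: wells of about 15 µL received 100 nL stock; the first replicate is given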
Target sequence (P08753 whole entry, looked up): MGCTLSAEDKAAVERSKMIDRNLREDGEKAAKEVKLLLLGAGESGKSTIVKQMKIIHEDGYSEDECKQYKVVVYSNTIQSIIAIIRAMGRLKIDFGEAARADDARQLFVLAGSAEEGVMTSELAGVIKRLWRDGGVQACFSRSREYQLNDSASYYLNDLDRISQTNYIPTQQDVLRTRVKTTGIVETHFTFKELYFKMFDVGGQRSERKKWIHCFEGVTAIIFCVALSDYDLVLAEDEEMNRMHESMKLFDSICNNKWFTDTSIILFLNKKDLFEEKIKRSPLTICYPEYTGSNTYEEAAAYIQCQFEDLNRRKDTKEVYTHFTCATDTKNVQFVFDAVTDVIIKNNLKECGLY
Sa growth 42C second temp: second read-out of Sa growth 42C, no call of its own (marks repeat the call); relative growth, %; measured here: growth at 30 °C;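 optical density after 20 h as mean of two plates; 100% = untreated growth and lower means inhibition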
* = called active by the depositor; · = not tested or not shown; & = joins results of further samples.

Short forms – A = Sa growth 42C; B = Sa growth 42C second temp; C = HCMV NEC inh; D = GIV Gai3 FP
> O=C(Nc1nccs1)c1cc(=O)[nH]c2ccccc12
  A = 107	B = 88	C = -30	D = ·

> C/C(N)=C/C(=O)c1ccccc1
  A = ·	B = ·	C = -30	D = 106

> O=S1(=O)CCN(Cc2ccc(F)cc2F)CC1
  A = 90	B = 82	C = -23	D = 108

> COC(=O)CSc1nc(C2CC2)cc(C(F)(F)F)c1C#N
  A = 131	B = 110	C = 2	D = 107

> COc1cccc(OCCSc2nc3ccccc3s2)c1
  A = 81	B = 81	C = -13	D = ·

> c1ccc(SCCc2ccccn2)cc1
  A = 111	B = 108	C = 0	D = 106

> Cc1ccc(-n2c(=O)[nH]c3cc(-c4nc(-c5cccc(C)c5)no4)ccc3c2=O)cc1
  A = ·	B = ·	C = -18	D = 106

> Cc1ccccc1C(=O)Oc1ccc(-c2csnn2)cc1
  A = 102	B = 78	C = 0	D = 94

> O=C(c1ccc2c(c1)C(=O)N(CCCO)C2=O)c1ccc2c(c1)C(=O)N(CCCO)C2=O
  A = 110	B = 86	C = -126	D = 94

> CC(=O)N1CCCSc2ccc(S(=O)(=O)NC3CCCc4ccccc43)cc21 (centres undefined)
  A = ·	B = ·	C = -7	D = 101

> CN(Cc1ccco1)C(=O)C1=Cc2sc3c(c2CS1)CCCC3
  A = 95	B = 50	C = -58	D = 111

> CC1CC(C)CN(S(=O)(=O)c2ccc(C(=O)Nc3ccccc3-c3nc4ccccc4[nH]3)cc2)C1 (centres undefined)
  A = ·	B = ·	C = 9	D = 100

> CCOC(=O)COc1ccccc1/C=C(/C#N)S(=O)(=O)c1ccccc1
  A = 76	B = 87	C = -13	D = 99

> C/C=C/C1OC23CCCCC2C(C#N)(C(=N)O3)C1(C#N)C#N (centres undefined)
  A = 96	B = 84	C = -18	D = ·

> CCn1c(=O)n(-c2ccc(F)cc2)c2nc(-c3cc(Br)ccc3F)nc(C(N)=O)c21
  A = ·	B = ·	C = -9	D = 105

> CCOC(=O)c1ccccc1NC(=O)CSc1cc(C)[nH]c(=O)n1
  A = 127	B = 85	C = ·	D = 98&104

> COC(=S)Nc1ccccc1
  A = 90	B = 80	C = -5	D = 99

> CCC1CN(C(=O)N2CCC(C(=O)NCc3cccs3)CC2)c2ccccc2O1 (centres undefined)
  A = 112	B = 106	C = -16	D = 101

> Cc1ccc(CS(=O)(=O)Cc2ccc(C(=O)NCCc3ccc(Cl)cc3)o2)cc1
  A = 116	B = 95	C = ·	D = 98

> Cc1[nH]c(=O)[nH]c(=O)c1C1N2CC3(C(C)C)CN1CC(C(C)C)(C2)C3=O (centres undefined)
  A = 90	B = 85	C = -41&-14	D = 100&100

> O=C(CCCC(=O)c1ccccc1)c1ccccc1
  A = 126	B = 90	C = -1	D = 95

> N/C(=N\OC(=O)CCn1c(=O)oc2ccccc21)c1ccc(Cl)cc1
  A = 102	B = 83	C = -16	D = 106

> COC(=O)c1sccc1S(=O)(=O)N(CC(=O)NCc1ccc(C)cc1)c1ccc(Cl)cc1
  A = 90	B = 90	C = ·	D = 100

> CCOC(=O)c1ccc2c(c1)C1C=CCC1C(c1ccc(F)cc1)N2 (centres undefined)
  A = ·	B = ·	C = -29	D = 110

> CC(C)CN(C1CCS(=O)(=O)C1)S(=O)(=O)c1cccs1 (centres undefined)
  A = 95	B = 94	C = -6	D = 99

Arranged by value in GIV Gai3 FP (highest first): some entries from above.
SMILES | GIV Gai3 FP
CN(Cc1ccco1)C(=O)C1=Cc2sc3c(c2CS1)CCCC3 | 111
COC(=O)CSc1nc(C2CC2)cc(C(F)(F)F)c1C#N | 107
Cc1ccc(-n2c(=O)[nH]c3cc(-c4nc(-c5cccc(C)c5)no4)ccc3c2=O)cc1 | 106
CC(=O)N1CCCSc2ccc(S(=O)(=O)NC3CCCc4ccccc43)cc21 (centres undefined) | 101
CCOC(=O)COc1ccccc1/C=C(/C#N)S(=O)(=O)c1ccccc1 | 99
Cc1ccccc1C(=O)Oc1ccc(-c2csnn2)cc1 | 94

The list continues.
Short forms – A = Sa growth 42C; B = Sa growth 42C second temp; C = HCMV NEC inh; D = GIV Gai3 FP
> CCc1ccc(N2CC(O)(c3ccccc3)[N+]3=C2CCCC3)cc1 (centres undefined)
  A = 112	B = 82	C = ·	D = 107

> Cc1ccc(-n2nc(C(=O)Nc3ccc(Br)cc3C)c(=O)n(C)c2=O)cc1
  A = 96	B = 92	C = ·	D = 100

> CCOC(=O)c1sc(N)c(C(=O)OCC)c1CSc1nnc2n1CCCCC2
  A = 105	B = 94	C = -8	D = ·

> COc1cccc(NC(=O)c2cc3c(s2)-c2c(C)cccc2OC3)c1
  A = 115	B = 86	C = ·	D = 106

> CSc1ncc(Cl)c(C(=O)N(Cc2ccccc2)Cc2ccco2)n1
  A = 106	B = 75	C = -3	D = 102

> CCOc1ccc(CN(CC2CCCO2)S(=O)(=O)c2ccc(S(=O)(=O)N3CCCCC3)cc2)cc1 (centres undefined)
  A = ·	B = ·	C = -20	D = 101

> CC1CCc2nc(NC(=O)c3ccc(S(=O)(=O)N4CCc5ccccc54)cc3)sc2C1 (centres undefined)
  A = ·	B = ·	C = -17	D = 108

> COC(=O)c1ccc(CSc2nc3ccccc3c(=O)n2-c2ccccc2)o1
  A = 90	B = 96	C = -20	D = ·

> O=C(c1cccc(-n2cnnn2)c1)N1CCCC(c2nc3ccccc3s2)C1 (centres undefined)
  A = 81	B = 83	C = -34	D = ·

> FC(F)Oc1ccc(NC(=S)NNc2nc3ccccc3[nH]2)cc1
  A = 45	B = 62	C = -2	D = ·

> COc1ccc2[nH]c3c(=O)n(CCC(=O)NCCc4ccc(OC)c(OC)c4)c(=S)[nH]c3c2c1
  A = 107	B = 85	C = ·	D = 100

> O=C(CN1C(=O)COc2ccc(S(=O)(=O)N3CCCC3)cc21)NCCc1ccc(Cl)cc1
  A = 132	B = 101	C = ·	D = 110

> COCCOC(=O)C1=C(C)NC2=C(C(=O)CC(c3ccc(OC)c(OC)c3)C2)C1c1ccc(SC)cc1 (centres undefined)
  A = ·	B = ·	C = -20	D = 103

> Cc1ccsc1/C=C/C(=O)NCC(=O)O
  A = 97	B = 100	C = ·	D = 103

> COC(=O)c1ccc(CSc2n[nH]c(=O)[nH]c2=O)cc1
  A = 111	B = 94	C = 4	D = ·

> O=c1n(-c2ccccc2)c(=O)n2n1CCCC2
  A = 108	B = 85	C = -17	D = 99

> Cc1cc(OCC(=O)OCC(=O)Nc2ccc(F)cc2)no1
  A = 101	B = 78	C = -25	D = ·

> O=S(=O)(NCc1cccn1Cc1cccc(F)c1)c1ccc2c(c1)CCCC2
  A = ·	B = ·	C = -5	D = 111

> N#CCC(=O)N1CCN(C=O)CC1
  A = 93	B = 88	C = -14	D = ·

> COC(=O)c1c(C)sc(-c2c(-c3ccc4c(c3)OCCO4)[nH]c3[nH]c(=O)[nH]c(=O)c23)c1O
  A = 80	B = 86	C = -30	D = 236

> CC1(C)CC(=O)c2cc(C(=O)Nc3cccc(O)c3)c(=O)[nH]c2C1
  A = 92	B = 83	C = -20&0	D = 101&96

> NC(=O)c1ccsc1NC(=O)Cc1ccc(S(=O)(=O)N2CCOCC2)s1
  A = 96	B = 81	C = -29	D = ·

> Cc1ccc(NC(=O)Cc2nc(CN3CCCC3c3cccs3)cs2)cc1 (centres undefined)
  A = 97	B = 97	C = -14	D = ·

> CCOC(=O)C1=C(C)OC(N)=C(C#N)C1C1CCCCC1 (centres undefined)
  A = 114	B = 100	C = -3	D = 108

> Cc1cc(C)c(Cn2c(=O)n(CCCCCC(=O)NCc3ccc4c(c3)OCO4)c(=O)c3sccc32)c(C)c1
  A = 99	B = 91	C = -1	D = 102

Later entries.
molecule	Sa growth 42C	Sa growth 42C second temp	HCMV NEC inh	GIV Gai3 FP
CCOc1ccc(-c2cc(C(=O)N3CCCCC3C)[nH]n2)cc1 (centres undefined)	96	87	-22	101
COc1ccc(NC(=O)c2cc3c(=O)n(Cc4cccs4)ccc3nc2C)c(OC)c1	104	95	·	101
CCOc1ccc(NC(=O)CCc2c(C)nc3c(c(C)nn3-c3ccccc3)c2C)cc1	106	87	-9	99
CSc1nc(C=Nc2cccc(Cl)c2)c(O)n1Cc1cccc(Cl)c1	95	80	2	105
COc1ccc(Cl)cc1-c1nc(SCC(=O)N(CC(C)C)C2CCS(=O)(=O)C2)n[nH]1 (centres undefined)	105	97	-10	·
Cc1nc2nc(NC(=O)c3ccc(C(C)(C)C)cc3)[nH]n2c(=O)c1Cl	102	92	-3	99
COc1cc2c3c(c1OC)C1(C=CC(=O)C=C1)CC3N(C)CC2 (centres undefined)	97	93	9	106
Cc1nn2c(=O)cc(COC(=O)c3ccc(C(C)(C)C)cc3)nc2s1	103	91	·	105
CC1=NN(c2cccc(Br)c2)C(=O)/C1=C\c1ccc(-c2cccc([N+](=O)[O-])c2)o1	·	·	-19	100
O=C(O)CSCC(=O)Nc1ccc(-c2cn3ccsc3n2)cc1	94	98	-31	·
COc1ccc(CCNc2oc(-c3ccc(C)cc3)nc2C#N)cc1OC	96	97	-3	96
CN(CC(=O)NCc1cccs1)S(=O)(=O)c1cccc2cccnc12	102	87	·	101
CN(C)c1ccc(C(CNS(=O)(=O)c2ccc(Cl)cc2)N2CCCC2)cc1 (centres undefined)	102	96	·	100
O=C(NCCSCc1ccccc1)c1ccccc1	85	95	9	113
CC(=O)N1CCc2cc(C(O)CN3CCN(c4ccc(Cl)cc4)CC3)ccc21 (centres undefined)	·	·	-24	98
COC(=O)c1ccc(NC(=O)CC2C(=O)N(c3ccccc3)C(=O)N2Cc2ccco2)cc1 (centres undefined)	133	92	·	109

Ordered by length of the SMILES (smallest number first): some entries from above.
molecule	Sa growth 42C	Sa growth 42C second temp	HCMV NEC inh	GIV Gai3 FP
O=C(NCCSCc1ccccc1)c1ccccc1	85	95	9	113
O=C(O)CSCC(=O)Nc1ccc(-c2cn3ccsc3n2)cc1	94	98	-31	·
CN(CC(=O)NCc1cccs1)S(=O)(=O)c1cccc2cccnc12	102	87	·	101
CN(C)c1ccc(C(CNS(=O)(=O)c2ccc(Cl)cc2)N2CCCC2)cc1 (centres undefined)	102	96	·	100

Next part
molecule	Sa growth 42C	Sa growth 42C second temp	HCMV NEC inh	GIV Gai3 FP
CC(=O)Nc1ccc2c(COC(=O)Cc3coc4cc5c(cc34)CCC5)cc(=O)oc2c1	110	95	6	·
CCOC(=O)c1c(C)oc2nc(C)nc(NCC3CCN(Cc4ccc(Cl)cc4)CC3)c12	104	92	·	112
CC1CCN(S(=O)(=O)c2ccc3[nH]cc(C(=O)NC4CCCCCC4)c(=O)c3c2)CC1	99	84	-29	101
Cc1ccc2c(nc3s/c(=C\c4ccccc4OCc4ccc(Cl)cc4Cl)c(=O)n32)c1C	·	·	-28	111
CN(C)c1nc2ccccc2c(=O)s1	103	88	-16	100
CCOc1cccc(OCCCN(C)Cc2ccccc2)c1	100	99	6	103
CCN1CCc2c(sc3c2C(=O)NC(c2ccc(COc4cccc(C(F)(F)F)c4)o2)N3)C1 (centres undefined)	76	82	·	151
CC1CCN(CC(O)COc2c(F)cc(Br)cc2F)CC1 (centres undefined)	98	91	-10	·
O=C(CNC(=O)c1ccccc1F)OCc1cc(=O)n2ccsc2n1	95	91	-25	107&101
O=S(=O)(c1ccccc1)N(c1cccnc1)S(=O)(=O)c1ccccc1	128	89	-19	103
COc1cc(/C=C2/SC(=Nc3ccccc3)N(N(C)C)C2=O)cc(Br)c1OC	81	90	-6	·
O=C(O)c1cn2ccccc2c1C(=O)O	·	·	-50	99
Cc1ccc(C(=O)NCCc2nc3cccnc3n2C2CCCCC2)cc1	·	·	-30	119
CC(=O)N1CCN(C(=O)c2ccc(S(=O)(=O)N3CCCc4ccccc43)cc2)CC1	91	97	-3	·
CCCCn1c(N)c(N(C)C(=S)NCCCN2CCOCC2)c(=O)[nH]c1=O	88	90	-44	·
O=C(O)/C=C/C(=O)N1CCN(c2ccccc2)CC1	97	84	-11	·
CCN(CC)CCNC(=O)COc1ccc(OC)cc1	97	92	-28&-9	·
CC(Sc1nnc(-c2cccs2)n1C1CC1)c1nc2ccccc2c(=O)[nH]1 (centres undefined)	97	81	-19	·
CCN1c2cc(C)ccc2-n2cccc2C12CCN(S(=O)(=O)c1ccc(OC)cc1)CC2	·	·	-25	97
Cc1nc(Nc2ccc(NC(=O)Nc3ccc4c(c3)OCCO4)cc2)cc(N(C)C)n1	·	·	1	106

A second format for part of the listing above:
Sequence of screens – Sa growth 42C	Sa growth 42C second temp	HCMV NEC inh	GIV Gai3 FP
> CCN1c2cc(C)ccc2-n2cccc2C12CCN(S(=O)(=O)c1ccc(OC)cc1)CC2
  ·	·	-25	97
> Cc1nc(Nc2ccc(NC(=O)Nc3ccc4c(c3)OCCO4)cc2)cc(N(C)C)n1
  ·	·	1	106
> CCN(CC)CCNC(=O)COc1ccc(OC)cc1
  97	92	-28&-9	·

High-throughput results (PubChem)
